From PubChem BioAssay
VDR inhibitor – vitamin D3 receptor (human) inhibition; P11473; VDR-SRC2-3 peptide fluorescence polarization, 2 h; Potency, µM, without a hit: max response, negative = inhibition, most hits filed as inhibitors; hit rate 0.93% among 400,000; AID 504847; active = well fitted inhibition curve with a large enough effect; inconclusive = small, poorly fitted or top-dose-only effect, or another doubt; inactive = no such curve, though single readings can be large or run the other way; note: series mostly up to about 120 µM
Target sequence (P11473 whole entry, looked up): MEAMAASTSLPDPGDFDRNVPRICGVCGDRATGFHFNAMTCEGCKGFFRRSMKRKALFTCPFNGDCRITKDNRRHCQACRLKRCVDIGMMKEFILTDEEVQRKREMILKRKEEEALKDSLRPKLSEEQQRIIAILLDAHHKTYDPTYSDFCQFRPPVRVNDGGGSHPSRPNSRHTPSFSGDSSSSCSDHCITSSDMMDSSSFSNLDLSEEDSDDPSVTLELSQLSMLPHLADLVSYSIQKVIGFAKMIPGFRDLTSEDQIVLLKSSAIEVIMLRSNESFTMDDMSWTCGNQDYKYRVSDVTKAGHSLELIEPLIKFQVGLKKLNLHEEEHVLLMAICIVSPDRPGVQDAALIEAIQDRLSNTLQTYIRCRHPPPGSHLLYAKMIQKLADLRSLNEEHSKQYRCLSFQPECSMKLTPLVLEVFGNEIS
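Signal is fluorescence polarization, reporting how far test compounds block the interaction of VDR with the SRC2-3 coregulator peptide after a 2 h room-temperature incubation.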
* hit, by the source's call; ? = inconclusive; & = joins results of further samples. % is set by controls: 0 for no effect and ±100 for the full control effect; potency is the fitted concentration of half-maximal effect. The list is partial, so the mix of outcomes need not match the whole.

Structure,VDR inhibitor
COc1ccc(Nc2ccc3cc(S(=O)(=O)N4CCCC4)ccc3n2)cc1OC,9.1%
CCOC(=O)c1sc(NC(=S)NC(=O)c2ccc(OC)cc2)nc1C,-8.7%
CCC(=O)Nc1nnc(-c2ccccn2)o1,4.0%
COc1ccc(C(C)(C)C)cc1NC(=O)CSc1ncn[nH]1,-4.9%
Cc1cc(C)c(Cn2c(=O)n(CCCC(=O)NCc3ccc4c(c3)OCO4)c(=O)c3sccc32)c(C)c1,-5.2%
Cn1c(CC(=O)Nc2ccccc2Cl)nnc1SCC(=O)Nc1nncs1,-13.9%
CCCCNC(=O)CCC(=O)NNc1nc2ccccc2c2nc(-c3ccccc3)nn12,-16.2%&-1.4%
CCCN=C1N(C)C[C@@H]2[C@@H]3C(=O)N(Cc4ccccc4)C(=O)[C@@H]3[C@](CC)(C(=O)OC)N12,14.8%
C=CCNc1nc(C(=O)OCC(=O)Nc2cccc(SC)c2)cs1,21.6%
Cc1c(Cl)cccc1-n1ncc(C(=O)N2CCN(C)CC2)c1C1CCN(C(=O)OC(C)(C)C)CC1,4.4%

Taken from above.
VDR inhibitor result of Cn1c(CC(=O)Nc2ccccc2Cl)nnc1SCC(=O)Nc1nncs1 reads -13.9%
VDR inhibitor result of CCC(=O)Nc1nnc(-c2ccccn2)o1 reads 4.0%

The list goes on:
Structure,VDR inhibitor
Cc1ccc(NC(=O)CCC(=O)NNC(=O)COc2cccc3ccccc23)c(C)c1,1.3%
Cc1nnc(NNS(=O)(=O)c2ccc(Cl)cc2)[nH]c1=O,-10.2%
COc1ccc(OC)c(S(=O)(=O)Nc2c(C)cccc2C)c1,-13.5%
CC(C)NC(=S)n1cc(C(=O)c2cc(Cl)cc(Cl)c2O)cn1,-1.4%
CNCc1ccc(OCc2ccccc2)c(OC)c1,10.1%
COc1ccc(C2=CN(Cc3ccccc3)CCC2=O)cc1,-15.6%
CC(C)(C)OC(=O)N1CCC(c2c(C(=O)NCCc3ccccc3)cnn2-c2ccc(F)cc2F)CC1,5.2%
COCCn1cc(C(=O)c2ccccc2OCC(=O)Nc2cc(C)on2)cc(C#N)c1=O,3.9%
CCOC(=O)C(Cc1ccccc1)NC(=O)CCC(=O)c1ccc(OC)cc1 (stereo unspecified),-4.0%
CCC(=O)NC1(C(F)(F)F)C(=O)Nc2c1c(=O)n(C)c(=O)n2C (stereo unspecified),12.5%

Next compounds follow:
Structure,VDR inhibitor
N#Cc1nc(COc2ccccc2)oc1N1CCCC1,-12.9%
C/C(=N/NC(=O)c1cccs1)c1ccco1,-0.5%
COc1ccc(-n2nnc3c(SCC(=O)c4ccccc4)ncnc32)cc1,0.9%
O=C(Nc1cccc(Cl)c1)Nc1ccccc1NS(=O)(=O)c1cccs1,13.3%
CNC(=O)/C(C#N)=C/c1cc(C)n(-c2ccc(N3CCOCC3)cc2)c1C,0.9%
O=c1c(-c2nc3ccccc3s2)cccn1Cc1ccccc1,14.0%
O=C(N/C(=C\c1ccc([N+](=O)[O-])cc1)C(=O)N1CCOCC1)c1ccccc1,1.5%
CCN(C(=O)CSc1nnc(Nc2ccccc2C)s1)C1CCS(=O)(=O)C1 (stereo unspecified),8.6%
O=C(Nc1ccc2nc3n(c(=O)c2c1)CCCC3)c1cccc([N+](=O)[O-])c1,-21.1%
CCCC1(C(=O)OCC)NC(c2ccc(OC)cc2OC)C2C(=O)N(c3ccccc3)C(=O)C21 (stereo unspecified),12.7%

More entries follow:
Structure,VDR inhibitor
Cc1ccc(C(=O)Nn2cnnc2)cc1S(=O)(=O)N1CCOCC1,12.7%
Cc1nc2ccc(C(=O)Nc3ccc4nc[nH]c4c3)cc2[nH]1,-12.5%
COc1ccc(N2C(=O)CSC2c2ccccc2)cc1 (stereo unspecified),8.4%
COc1ccc(C(=O)C2CCCN(Cc3cccn3-c3cccnc3)C2)cc1OC (stereo unspecified),-2.3%
CCCC(=O)N1CCN(c2ccc(NC(=O)c3ccc(OCC)c([N+](=O)[O-])c3)cc2)CC1,0.8%
N#Cc1cn(CCOC(=O)c2cccc(C(F)(F)F)c2)c(=O)[nH]c1=O,1.3%
COc1ccc(/C=N\NC(=O)C2=NNC(=O)C2C)cc1 (stereo unspecified),6.1%
CCc1cc2ccc(C)cc2nc1SCC(=O)c1ccc(NC(C)=O)cc1,3.6%
OCC1OC(n2nc3ccccc3n2)C(O)C(O)C1O (stereo unspecified),-8.5%
COc1cccc(/C=N/NC(=O)C(=O)NCc2cccnc2)c1OC,10.9%

(listing goes on)
Structure,VDR inhibitor
COc1ccc(/C=N/OC(=O)Nc2ccccc2)cc1[N+](=O)[O-],0.3%
CCC(C)(C)NC(=O)CN(C(=O)CCC(=O)Nc1nccs1)c1cccc(C)c1,-9.1%
Cc1cc(-n2c(C)cc(C(=O)COc3ccc4ccc(=O)oc4c3)c2C)no1,-20.5%
CC(C)CC(=O)N1CCN(C(=O)c2ccco2)CC1,-14.0%
COc1cccc(NC(=O)CSc2ccc3nnc(-c4ccccn4)n3n2)c1,10.4%
O=C(Nc1ccc(-c2nc3ccccc3o2)cc1)c1ccc(N2C(=O)C3C4C=CC(C4)C3C2=O)cc1 (stereo unspecified),8.6%
CN1C2CCCC1CC(NC(=O)c1nn(C)c3ccccc13)C2 (stereo unspecified),2.8%
COc1ccc2c(c1)c(/C=N/Nc1ccc(C(=O)O)cc1)c(C)n2C,13.9%
Cn1ncc2c(Nc3cccc(C#N)c3)ncnc21,13.8%
O=[N+]([O-])c1ccc(NC(=S)NCCc2ccccc2)cc1,-13.8%

(next part)
Structure,VDR inhibitor
O=c1cnn(-c2ccc(Cl)cc2Cl)c(-c2ccccc2)c1,-17.0%
CCCOc1ccc(C(=O)Nc2cc(S(=O)(=O)N3CCOCC3)ccc2N2CCOCC2)cc1,-93.8%
O=C(COC(=O)c1ccc([N+](=O)[O-])s1)Nc1cccc(S(=O)(=O)NC2=NCCCCC2)c1,-14.4%
Cc1ccc(CSc2nnc([C@@H]3CCCN3C(=O)OC(C)(C)C)o2)cc1,-20.9%
COc1ccc(CCNC(=O)c2cccc(S(=O)(=O)N3CCCC3)c2)cc1OC,-24.4%
O=C1NC[C@H](Cc2ccccc2)N(CC2CCN(CCCCc3ccccc3)CC2)C1=O,-5.4%
CN(Cc1cn(C)nc1-c1ccccc1F)C1CCOC1 (stereo unspecified),-1.1%
CCC(=O)Nn1cnc2c(c1=O)C1(CCCCC1)Cc1ccccc1-2,2.2%
Cc1ccc2cccc(OCC(=O)NCCC3=CCCCC3)c2n1,-5.0%
Cc1ccc(NC(=O)CCC(=O)NNC(=O)NC2CCCCC2)c(C)c1,-5.5%

(listing goes on)
Structure,VDR inhibitor
COc1ccc(CCNC(=O)COC(=O)/C=C/c2cc(OC)c(OC)c(OC)c2)cc1OC,6.1%
Cc1ccccc1OCC(=O)NNC(=O)C1CCCCC1C(=O)O (stereo unspecified),?
O=C(NCc1ccc(F)cc1)c1cccc2c1C(=O)c1ccc(N3CCC(Cc4ccccc4)CC3)cc1S2(=O)=O,-15.2%
COc1ccc(C)c(NC(=O)NCCc2cnc[nH]2)c1,1.1%
CCOC(=O)C1=C(C)NC2=C(C(=O)C(C(=O)OCC)C(c3ccccc3OC)C2)C1c1ccccn1 (stereo unspecified),-2.8%
O=C(NCC1CCN(Cc2cccc(Cl)c2)CC1)C1CCCN(c2ncnc3c2nc2n3CCCCC2)C1 (stereo unspecified),-5.3%
O=c1nc(N2CCCC2)nc(Nc2ccccc2)[nH]1,0.6%
Cc1ccc(NC(=O)CSc2c3c(nc4ccccc24)CCCC3)cc1F,-29.4%
C=CCn1c(=NC(=O)c2cccs2)sc2cccc(OC)c21,1.1%
COc1ccc(NS(=O)(=O)c2ccc(O)c(NC(=O)c3ccc(S(=O)(=O)N4CCCCCC4)cc3)c2)cc1,4.4%

Continuation.
Structure,VDR inhibitor
Cc1nc2cc(NC(=O)NC(C)(C)C)ccc2n1C,6.9%
CCS(=O)(=O)N1CCN(S(=O)(=O)c2ccccc2[N+](=O)[O-])CC1,12.1%
CCn1c(SCC(=O)C(C)(C)C)nnc1-c1ccccn1,8.7%
Cn1cccc1Cc1nnc(SCC(=O)N2CCc3ccccc32)n1CCc1ccccc1,-16.3%
COCCCNC(=S)N1CCN(Cc2ccc3c(c2)OCO3)CC1,-5.2%
COCC(=O)N/N=C(\C)CC(=O)Nc1ccccc1C(N)=O,-14.5%
CCOC(=O)c1nnn(-c2ccccc2)c1C,4.7%
CCN(CC)S(=O)(=O)c1ccc(C)c(NC(=O)CNc2cccc(S(=O)(=O)N3CCOCC3)c2)c1,11.1%
O=C(Cn1nnnc1-c1ccccc1F)Nc1ccc(OC(F)(F)F)cc1,0.0%
COc1cccc(Nc2nnc(SCC(=O)N3CC(=O)Nc4ccccc43)s2)c1,-26.1%

Further results
SMILES | VDR inhibitor
Cc1ccc2[nH]c(CNC(=O)c3ccccc3F)cc2c1 | 4.6%
Cc1cc(=O)oc2cc(NC(=O)C3CCCC3)ccc12 | 13.2%
COc1ccc(C)cc1NC(=O)c1cc2ccccc2cc1OCC(=O)NCc1ccco1 | 2.8%
CCNc1nc(-c2cc3ccccc3o2)cs1 | -12.9%
COc1ccc(-c2noc(-c3ccccc3C(=O)Nc3cccnc3)n2)cc1OC | -11.3%
COc1ccc(-c2nc3ccccc3s2)cc1NC(=O)c1cc2ccccc2o1 | 0.8%
C/C(=N\OCC(=O)Nc1cc(C)cc(C)c1)c1ccc2c(c1)OCCO2 | -3.1%
CCCC(=O)Nc1cccc(-c2nc3ccccc3o2)c1 | 4.4%
Cc1nn(C)c(C)c1CN(Cc1nc(-c2ccc(F)cc2F)oc1C)C1CC1 | 3.5%
CN(CC(=O)Nc1cccnc1)S(=O)(=O)c1ccc(Br)cc1 | -7.8%
O=[N+]([O-])c1ccc(NN=Cc2ccccc2)nc1 | -5.5%
CC1=C(C(=O)NCc2ccc(Cl)cc2)C2(CCCCC2)OC1=O | -9.7%
COC(=O)C1=C(C)NC(C)=C(C(=O)OC)C1c1ccc(-c2cc(Cl)ccc2Cl)o1 | -22.7%
O=[N+]([O-])c1ccc(C[n+]2ccccc2)cc1 | -13.1%
Cc1cc(C(=O)Nc2nnc(-c3ccccc3)s2)no1 | -8.5%

(further entries)
SMILES | VDR inhibitor
N#CC1=C(N)Oc2n[nH]c(-c3ccccn3)c2C1c1c(F)cccc1Cl (stereo unspecified) | -6.1%
CC(=O)C1=C(O)C(=O)N(c2cc(C(C)(C)C)on2)C1c1ccc(C(C)C)cc1 (stereo unspecified) | -14.7%
O=C(NCC(c1cccs1)N1CCOCC1)c1cn(-c2ccccc2)nc1-c1ccc(Cl)cc1 (stereo unspecified) | -4.8%
CCOC(=O)CN1N=C(/C=C/c2ccc(OCC)cc2)CCC1=O | 0.5%
CCc1nnc(SCc2nc(-c3ccc(OC)c(OC)c3)oc2C)c2cc3sc(C)cc3n12 | 4.6%
COc1ccccc1CCNC(=O)c1cc2ccccn2n1 | 7.6%
O=C(COC(=O)c1ccc(O)cc1O)c1ccc(Cl)cc1 | 0.8%
C=CCN(CC=C)CCCOc1ccc(Br)cc1Cl | -14.1%
CCCSc1nc2c(c(=O)n(C)c(=O)n2C)n1Cc1ccc(C)cc1 | 16.8%
CSc1nc2nc3c(cc2c(=O)n1-c1ccc(C)cc1)COC(C)(C)C3 | -2.2%
Cc1ccc(C2CCN(C(=O)Nc3ccc(Cl)c(Cl)c3)C2)cc1 (stereo unspecified) | 1.9%
Cc1cccc(NC(=O)C2CC(O)CN2C(=O)OCc2ccccc2)c1 (stereo unspecified) | -5.0%
COc1ccc(C2=NS(=O)(=O)N(C)C(C(=O)N3CCCCC3)=C2)cc1OC | 9.1%
Cc1ccc(CS(=O)(=O)CCC(=O)NC2CC2)cc1 | 24.0%
CCc1ccc(-c2nc(CS(=O)CC(=O)NCc3ccccc3)c(C)o2)cc1 (stereo unspecified) | -27.0%

No new results follow: an excerpt of the list.
SMILES | VDR inhibitor
CSc1nc2nc3c(cc2c(=O)n1-c1ccc(C)cc1)COC(C)(C)C3 | -2.2%
Cc1ccc(C2CCN(C(=O)Nc3ccc(Cl)c(Cl)c3)C2)cc1 (stereo unspecified) | 1.9%
Cc1cccc(NC(=O)C2CC(O)CN2C(=O)OCc2ccccc2)c1 (stereo unspecified) | -5.0%
COc1ccc(C2=NS(=O)(=O)N(C)C(C(=O)N3CCCCC3)=C2)cc1OC | 9.1%
Cc1ccc(CS(=O)(=O)CCC(=O)NC2CC2)cc1 | 24.0%

Next records
SMILES | VDR inhibitor
COc1ccc(CNC(=O)C2CCCN(Cc3nc(-c4cccc(C)c4)oc3C)C2)cc1 (stereo unspecified) | 12.3%
Oc1ccc(Cl)cc1C1C=C(c2ccc3c(c2)OCO3)NC(c2ccc(C(F)(F)F)cc2)N1 (stereo unspecified) | ?
COc1ccc(CCNC(=O)Cn2c(=O)c3sccc3n(CC(=O)Nc3cccc(C(F)(F)F)c3)c2=O)cc1OC | 8.2%
O=C1Nc2ccccc2C(O)(C(=O)NCc2ccc3c(c2)OCO3)N1c1ccc(Cl)c(Cl)c1 (stereo unspecified) | -17.9%
COc1ccc(CCNC(=O)/C=C/c2ccc3ccccc3n2)cc1OC | -2.8%
CNC(=O)c1cnn(-c2nc(-c3ccc(OC)cc3)cs2)c1C(F)(F)F | -5.6%
COc1ccc(S(=O)(=O)N2CCC(O)(c3ccc(Cl)cc3)CC2)cc1 | -0.4%
CCCCOc1ccc(NC(=O)Nc2nnc(C)s2)cc1 | 2.6%
O=C(Cn1nc(-c2cccc([N+](=O)[O-])c2)c2ccccc2c1=O)Nc1cccnc1 | -13.4%
Cc1ccccc1C(=O)OC1OC(=O)C(Cl)=C1N1CCOCC1 (stereo unspecified) | -9.4%
COc1ccc(OC)c(CNS(=O)(=O)c2ccc(-c3coc(C)n3)cc2)c1 | 1.9%
CCCN(C(=O)c1nn(-c2ccc(C)cc2)c(=O)c2c1c1ccccc1n2C)c1ccccc1C | -3.9%
CC(=O)N(C(C)=O)c1nc(-c2ccccc2)cn1/N=C/c1cccc([N+](=O)[O-])c1 | 0.0%
